# Source: PubChem
# A1 inh – inhibitors of the anti-apoptotic protein A1, read as caspase activation. MEF A1-2A-BIM cells, Caspase-Glo 3/7 luminescence, 3 h; percent of clofoctol response, vehicle zero. caspase activation, % (concentration not given with the values). 330,000 tested, 0.066% active;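 active means over half of replicate activation scores above 10%, or exactly half above 10 with the replicate mean above 10; inconclusive means replicate mean below 10 yet half the replicates above 10; inactive means over half of replicates below 10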;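 further: wells of about 30 µL received 50 nL stock; many hits fall short of the cut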
# RanGTP-Imp inh – disruptors of Ran-importin-beta complex formation – biochemical, FRET, CFP-Ran, YFP-importin-beta, homogeneous, primary screen | cell-free CFP-Ran/YFP-importin-beta FRET ratio | inhibition, % (no concentration beside the values) | 300,000 tested, 1.1% active | AID 2216;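 active means most replicates above 15%; inconclusive means exactly half above 15%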;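 further: 0% = DMSO wells and 100% = Ran loaded with GDP instead of GTP; wells of about 40 µL received 100 nL stock; the first replicate is given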
# Vif TR-FRET – inhibitors of Vif binding to APOBEC3G peptide, primary screen, biochemical, TR-FRET, GST-Vif 1-94, biotin-A3G peptide, dose response retest (AID 1117319); TR-FRET GST-Vif / biotin-A3G peptide binding; higher % means a stronger effect; test concentration not given here; strong numbers were not always called active; one-dose inhibition, %; IC50 in µM for titrated hits; 260,000 tested, 0.57% active;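 active means above the screen mean plus three standard deviations and confirmed in dose response; inconclusive means results disagree or hit not tested in dose response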;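 further: Vif residues 1-94 fused to GST binding biotinylated APOBEC3G peptide 110-148; 0% = full assay without inhibitor and 100% = GST in place of GST-Vif; retest series ran down from 100 µM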
# Beta apoptosis – beta cell apoptosis inhibition; INS-1E cytokine-induced death, ATP luminescence, 48 h; percent of positive-control rescue, neutral wells zero; protection from apoptosis, % (no concentration beside the values); 300,000 tested, 0.8% active; AID 435005;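 active means all replicates at 75% or more, or half of them and the mean; inconclusive means half reach 75% but not the mean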;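 further: 0% = cytokine-treated negative control wells and 100% = positive control rescue; higher means more ATP so stronger rescue from cytokine killing; wells of about 40 µL received 100 nL stock; the first replicate is given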
# LANA-H2B inh – blocks KSHV LANA binding to histone H2A/H2B; Q9QR71; AID 2629; inhibition, % (test concentration not listed); cell-free LANA-H2A/H2B peptide, fluorescence polarization; 320,000 tested, 0.6% active; in the data active means inhibition mostly above about 10%, no sharp cut-off; inactive means mostly below about 6.7%;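 further: stock transfer was 7.5 nL into about 10 µL; 0% = median of vehicle wells and 100% = median of positive control wells; one replicate is shown; the record names a cut of 25% in any replicate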
# MLL AF4-AF9 inh – inhibitors of human MLL-AF4/AF9 interaction; AlphaScreen, biotin-AF4 peptide binding to FLAG-AF9; inhibition, % at 10 µM; 350,000 tested, 0.47% active; P42568;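 active means every replicate reaching a set inhibition limit, whatever the replicate mean, cut at about 25% in these data; inconclusive means mean inhibition reaches that limit but some replicates miss it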;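 further: 0% = plate neutral control median and 100% = total signal loss; the record names both 10 and 1 µM as test concentration; the first replicate is given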
# Target sequence (P42568 whole entry, looked up): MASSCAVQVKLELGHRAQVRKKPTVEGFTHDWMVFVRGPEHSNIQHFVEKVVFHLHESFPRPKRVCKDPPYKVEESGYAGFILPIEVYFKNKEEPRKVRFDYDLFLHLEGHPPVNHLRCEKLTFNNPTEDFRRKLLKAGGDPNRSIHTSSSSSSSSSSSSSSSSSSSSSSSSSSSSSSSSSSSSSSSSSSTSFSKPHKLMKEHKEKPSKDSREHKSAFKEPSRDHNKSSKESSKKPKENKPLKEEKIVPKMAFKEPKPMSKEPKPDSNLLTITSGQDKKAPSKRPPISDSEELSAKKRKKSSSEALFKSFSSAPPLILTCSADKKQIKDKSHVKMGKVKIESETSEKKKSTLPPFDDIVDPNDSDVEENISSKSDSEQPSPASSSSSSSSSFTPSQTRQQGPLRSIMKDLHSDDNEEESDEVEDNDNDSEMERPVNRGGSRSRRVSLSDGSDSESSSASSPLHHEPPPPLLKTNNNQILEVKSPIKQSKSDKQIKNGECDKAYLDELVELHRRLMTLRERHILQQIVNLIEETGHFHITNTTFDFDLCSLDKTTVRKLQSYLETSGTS
# T cruzi inh – blocks replication of Trypanosoma cruzi. T. cruzi beta-gal in NIH3T3, luminescence, 90 h. inhibition, % (no concentration beside the values). 300,000 tested, 1.4% active;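 active means mean inhibition across valid replicates above about 55%, limit read from the data; inconclusive means mean below that limit but half or more replicates reach it; inactive means mean below it, under half of replicates reach it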;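 further: signal also drops with host cell toxicity which is not excluded here; 0% = plate median of DMSO wells and 100% = zero luminescence signal; higher percent means less beta-gal luminescence so fewer parasites; stock transfer was 50 nL into about 50 µL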
# Calb FLC – affects C. albicans growth with fluconazole | growth inhibition, % (test concentration not listed) | 300,000 tested, 0.57% active | C. albicans CaCi-2 (fluconazole-resistant clinical isolate) + fluconazole, Alamar Blue growth, 48 h | AID 1979;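 active means most replicates above 75%; inconclusive means exactly half above 75%; inactive means most below 75%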;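 further: all wells also contain fluconazole at 8 µg/ml as a sub-toxic cotreatment; 0% = median of DMSO wells and 100% = median of geldanamycin control wells; wells of about 8 µL received 7.5 nL stock; the first replicate is given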
# * hit, by the source's call; ? = inconclusive; · = no result given; & = joins results of further samples.
item	SMILES	A1 inh	RanGTP-Imp inh	Vif TR-FRET	Beta apoptosis	LANA-H2B inh	MLL AF4-AF9 inh	T cruzi inh	Calb FLC
1	O=C(NCCCNC(=O)NC1CCCCC1)NC1CCCCC1	-0.2	-4.5	·	-2	4.4	·	-9	4
2	COc1ccccc1CNc1nc(C)c(C(C)=O)s1	-1.4	-2.0	·	-4	-4.8	1.5	4	11
3	CCOC(=O)C(C(=O)OCC)C(C)(C)/C(C)=N\Nc1ccc([N+](=O)[O-])cc1[N+](=O)[O-]	1.0	2.3	-3%	8	2.7	·	17	-2
4	O=C(NC1CCCCC1)C1CCCN(S(=O)(=O)c2cccc3cccnc23)C1 (stereo not given)	0.2	1.7	·	1	2.7	-3.7	0	-14
5	CCCC(=O)c1cc(F)c(N2CCN(C(=O)OCC)CC2)cc1C	0.9	-1.3	-3%	2	-1.8	·	18	-5
6	N#Cc1ccc(N2CCCC2C(=O)O)c([N+](=O)[O-])c1 (stereo not given)	0.2	9.5	0%	1	0.2	·	0	-3
7	CC(=O)NC1CC2CCCC(C1)N2CC(=O)Nc1ccccc1 (stereo not given)	0.6	-0.7	1%	-4	6.3	·	-5	3
8	Cc1cc(N2CCN(c3ccc(F)cc3)CC2)nc2cc(O)ccc12	0.3	7.1	6%	-3	-1.6	5.0	-1	-8
9	CCOc1ccc(S(=O)(=O)N(CC(=O)O)c2ccccc2)cc1	0.4	5.1	-2%	-2	18	·	0	21
10	COc1ccc(-c2cccc(NS(=O)(=O)c3cc([N+](=O)[O-])ccc3Cl)c2)nn1	0.7	0.0	0%	-1	·	0.7	11	15
11	Cc1ccsc1C(=O)N1CC=C(c2ccccc2)CC1	-0.1	3.5	4%	3	7.5	-3.3	-17	22
12	COc1cccc(/C=N/Nc2ccc(Cl)nn2)c1OC	-1.5	0.4	·	-6	-7.7	·	-5	5
13	CC(C)CN(C(=O)C1CC1)c1c(N)n(Cc2ccccc2)c(=O)[nH]c1=O	-0.4	-2.6	3%	-4	-1.6	-2.5	-8	-12
14	Cc1c(C(=O)Nc2cc(S(=O)(=O)N3CCOCC3)ccc2N2CCOCC2)oc2ccccc12	0.0	0.8	0%	13	-3.1	-0.2	75*	-12
15	CCCOc1ccc(Cn2ccnc2)cc1[N+](=O)[O-]	-0.6	23*	·	1	-2.5	·	31	?
16	CC1=C(/C=C/C(C)=C/C=C/C(C)=C/C(=O)O)C(C)(C)CCC1	0.3	-4.4	0%	-20	6.8	-5.0&1.5	-10	-4
17	Cc1cc(C(=O)O)c(C)n1Cc1ccncc1	-0.3	?	·	-1	-0.3	0.8	-7	-2
18	Cc1ccc(S(=O)(=O)CCc2nnc(NC(=O)c3ccccn3)s2)cc1	-0.1	0.4	7%	1	-0.6	·	-31	-6
19	Cc1cc(NC(=O)CCSc2ccccc2)no1	0.6	·	·	-4	-1.0	1.5	·	-16
20	O=C(OCCCC(=O)N1CCOCC1)c1ccccc1	1.2	0.6	0%	-2	0.4	·	-27	25
21	CC(C)CC(C(=O)O)N1C(=O)C2C3C=CC(C2C1=O)C1C(=O)N(C(CC(C)C)C(=O)O)C(=O)C31 (stereo not given)	0.7	5.2	·	·	4.0	-1.7	-18	-12
22	O=C(Nc1ccccc1)O/N=C(\c1ccccc1)c1ccccn1	-0.9	-2.1	0%	-3	1.0	·	-22	0
23	COc1ccc(OC)c(Nc2nc(C3CC3)nc3c2nnn3Cc2ccccc2)c1	-0.1	-0.9	-3%	11	0.5	·	45	-5
24	COc1ccc(C(=O)COc2ccc(NC(C)=O)cc2)cc1	0.6	-0.4	7%	8	1.2	·	9	-5
25	COc1ccc(S(=O)(=O)N2CCCCCC2)cc1N(C)S(=O)(=O)c1ccc(C)cc1	0.2	1.1	5%	0	·	·	22	-3
26	Cc1cccc(C(=O)Nc2ncc(CN3CCOCC3)s2)c1	-0.4	-0.8	?	-9	0.0	1.7	-6	14
27	CCOC(=O)C(CC)(CCC(=O)O)c1csc(Nc2ccc(C)cc2)n1 (stereo not given)	-0.2	3.3	·	-7	-2.0	-0.8	-2	-7
28	O=C1CC/C=C\C[C@@H](CC(=O)N(CCO)Cc2ccccc2)C(=O)N[C@H](Cc2ccccc2)CO1	0.9	·	·	-8	4.8	2.2	·	·
29	CCOCCCNC(=O)C(c1ccc(C)cc1)N(Cc1ccc2c(c1)OCO2)C(=O)CNC(C)=O (stereo not given)	-1.3	-0.1	14%	-1	-0.9	·	-8	-4
30	Clc1ccc(-c2nnc(-c3ccccc3Cl)o2)cc1	-5.2	-0.4	28%	-5	-2.5	·	13	-24
31	CN1CCN(C(=O)c2cnn3c(C(F)(F)F)cc(-c4cccs4)nc23)CC1	-1.2	2.3	4%	9	-1.8	·	3	1
32	Cn1c(Cc2nc(-c3cnccn3)no2)nnc1SCC(=O)Nc1ccccc1	-0.3	0.5	9%	-4	-7.4	-1.3	-3	1
33	CC1Cc2ccccc2N1C(=O)c1cc2sccc2n1Cc1ccccc1 (stereo not given)	0.1	-2.2	-44%	-4	1.1	·	31	-5
34	S=C(NCCc1ccccc1)NC1CC2CCC(C1)N2Cc1ccccc1 (stereo not given)	-1.0	2.1	6%	5	-2.1	4.6	18	10
35	O=C(Cc1c(Cl)cccc1Cl)N1CCN(S(=O)(=O)c2cccs2)CC1	0.5	·	-2%	-3	-1.0	1.7	·	·
36	CC(C)c1ccc(N(CC(=O)NC2CCCCC2)C(=O)CCC(=O)Nc2ccccn2)cc1	0.3	-0.1	·	4	0.9	-1.3	10	0
37	CN(C)C=Nc1nonc1-c1ncn[nH]1	-0.4	-1.6	7%	0	0.8	·	-5	-4
38	Cc1ccc(NC(=S)NCCc2ccccc2)c(C)c1	0.8	2.4	·	4	2.7	·	19	-2
39	Cc1ccc(S(=O)(=O)Nc2nc3ccccc3nc2NCc2ccco2)cc1	0.1	20*	20%	-8	6.2	·	-29	-7
40	COc1ccc(S(=O)(=O)N(CCc2ccccc2)CC(=O)O)cc1OC	-1.1	4.2	-1%	·	0.9	·	-14	-2
41	CCOc1ccc(/C=C2\SC(=S)N(CCC(=O)N(CCO)c3ccccc3)C2=O)cc1	0.5	1.0	-3%	-40	1.3	-1.7	46	-6
42	Cc1[nH]c2ccccc2c1/C=N/NC(=O)C1CC1(c1ccccc1)c1ccccc1 (stereo not given)	-0.5	-1.6	-9%	26	1.7	·	33	-9
43	COC(=O)CSc1nnc(-c2ccccc2O)n1-c1ccc(C)cc1	-0.1	3.1	10%	-9	1.4	·	1	31
44	CC(=O)c1cc2c(cc1NC(=O)C1CN(C(C)=O)c3ccccc3O1)OCO2 (stereo not given)	0.1	·	4%	6	2.8	-0.7	·	·
45	Cc1ccc(C(=O)NCC(=O)OC(C)C(=O)Nc2ccc(N(C)C)cc2)s1 (stereo not given)	3.3	·	12%	6	7.8	1.2	-6	10
46	COc1cc2c(C#CCO)c(-c3ccc(C#N)cc3)oc(=O)c2cc1OC	1.6	·	·	20	3.3	-15	·	·
47	O=C(Nc1ccc(-n2ccc(C(F)(F)F)n2)cc1)Nc1cccc(Cl)c1	0.0	-4.9	·	116*	-2.2	·	62*	-16
48	COc1ccc(OCc2nc(N)nc(Nc3cccc(C)c3C)n2)cc1	-0.3	·	8%	-2	2.3	·	·	-6
49	Cc1cc(-c2cc(-c3ccc(Cl)cc3)on2)nc(NCC2CC2)n1	-1.4	-6.4	·	6	0.3	-2.6	-4	8
50	CC(Sc1nnnn1C)C(=O)NC1CCCC1 (stereo not given)	0.7	·	-6%	-7	-0.6	-8.0	·	·
51	O=C1CC(c2ccccc2)n2nc(NC(=O)c3cccnc3)nc2N1 (stereo not given)	·	3.0	-2%	·	·	·	-1	7
52	O=C1NC(CCc2ccccc2)C(=O)N1Cc1ccccc1Cl (stereo not given)	-0.8	-1.2	·	2	·	·	9	-10
53	CCN(CC)CCN(C(=O)c1ccc2c(c1)CCCC2)c1nc2ccc(C)cc2s1	0.1	-0.8	·	-1	-7.6	11	19	3
54	CCCOc1ccc(N2C(=O)CC(N3CCC(C(=O)OCC)CC3)C2=O)cc1 (stereo not given)	-0.3	1.0	0%	-2	8.1	·	3	-3
55	O=C(CCNS(=O)(=O)c1ccc(F)c(Cl)c1)NCc1ccccc1F	-1.1	·	·	-1	-2.2	-5.4	·	·
56	Cc1ccccc1-c1nc(-c2cccnc2)no1	-2.4	6.0	9%	-5	-0.5	·	-3	-7

# Next section
item	SMILES	A1 inh	RanGTP-Imp inh	Vif TR-FRET	Beta apoptosis	LANA-H2B inh	MLL AF4-AF9 inh	T cruzi inh	Calb FLC
57	Cn1c(N)c(C(=O)Nc2ccc(-c3ccccc3)cc2)sc1=S	-0.1	1.1	·	-4	-6.6	12	17	0
58	CC1CCN(c2ccc(-c3cccc(NC(=O)C(F)(F)F)c3)nn2)CC1	-5.8	0.6	1%	26	4.3	-10	-1	3
59	CN(CC(=O)Nc1ccc(F)c(F)c1F)C(=O)CCc1nc2sc3c(c2c(=O)[nH]1)CCCC3	-0.3	1.2	-5%	1	1.0	0.7	10	·
60	CCCOc1cc(C)c(S(=O)(=O)N2CCOCC2)cc1C	-0.7	?	1%	·	6.7	·	-7	-8
61	CCOc1ccc(S(=O)(=O)N2CN3CCN(C3)C2)cc1	-0.3	-2.4	·	-8	-3.3	-6.5	?	1
62	Cc1cccn2c(=O)c3cc(C(=O)NC4CCS(=O)(=O)C4)n(Cc4ccccc4)c3nc12 (stereo not given)	-0.3	?	-1%	4	2.1	-0.6	16	16
63	CC(C)NC(=O)c1nc2c(nnn2Cc2cccc(Cl)c2)c(=O)[nH]1	-0.4	-4.6	-7%	-4	0.3	1.5	-11	0
64	COC(=O)c1ccccc1NC(=O)c1c(Br)cnn1C	0.4	-0.5	-5%	-1	4.1	·	5	?
65	CCN(C(=O)COC(=O)c1c(C)nn(-c2ccccc2)c1C)C1CCS(=O)(=O)C1 (stereo not given)	-5.5	0.9	-4%	2	0.5	0.1	-6	-5
66	O=C1N=c2ccccc2=C1c1sc(=S)n(CC2CCCO2)c1O (stereo not given)	0.6	-4.4	21%	-21	-2.4	·	-8	12
67	COc1cccc(NC(=O)CSc2nnc(Cc3ccc(OC)c(OC)c3)o2)c1	0.3	2.7	-8%	-5	-2.0	2.2	-17	2
68	Cc1ccc(CNC(=O)C2CCN(c3nnc(N4CCCC4=O)s3)CC2)cc1	2.1	-1.3	·	-2	-3.2	6.9	0	2
69	CCNC(=O)NC(=O)C(C)OC(=O)c1oc2ccccc2c1CSC1CCCCC1 (stereo not given)	-0.2	3.2	-7%	4	0.2	·	25	-9
70	COc1cc(OC)c(NC(=O)CS(=O)(=O)Cc2nc(-c3ccc(C)cc3)oc2C)cc1Cl	0.4	?	-3%	-6	2.7	6.8	10	-1
71	Cc1ccc(S(=O)(=O)NCCN2CCOCC2)c(C)c1	0.2	0.3	-8%	-1	3.1	-0.9	3	1
72	COc1ccc(C(C)=O)cc1COC(=O)CNC(=O)C1CCCCC1	1.1	·	-4%	-6	5.5	-2.4	·	·
73	Cc1nn2cc(-c3ncc(C(F)(F)F)cc3Cl)cnc2c1Br	-8.3	-0.9	19%	0	4.6	0.5	-26	1
74	O=C(NCCc1ccccn1)c1cc(-c2ccc(Cl)cc2)nc2ccccc12	-0.3	1.4	·	4	-6.5	1.2	-9	8
